# Assay outcomes as filed in PubChem BioAssay.
# LANA-H2A inh = blocks KSHV LANA binding to histone H2A/H2B. Q9QR71. cell-free LANA-H2A/H2B peptide, fluorescence polarization. inhibition, % (concentration not given with the values). 320,000 tested, 0.6% active. AID 2629; in the data active = inhibition mostly above about 10%, no sharp cut-off; inactive = mostly below about 6.7%;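 also: stock transfer was 7.5 nL into about 10 µL; 0% = median of vehicle wells and 100% = median of positive control wells; one replicate is shown; the record names a cut of 25% in any replicate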
# ALR H2O2 inh = inhibitors of human sulfhydryl oxidase ALR; P55789; purified ALR, DTT oxidation, H2O2 HRP-luminol luminescence; inhibition, % (no concentration beside the values); 290,000 tested, 3.8% active;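 active = mean and each replicate at 75% or more; inconclusive = only one of the two met; inactive = neither met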;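 also: stock transfer was 7.5 nL into about 7.5 µL; 0% = neutral wells and 100% = wells with inactivated enzyme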
# Target sequence (P55789 whole entry, looked up): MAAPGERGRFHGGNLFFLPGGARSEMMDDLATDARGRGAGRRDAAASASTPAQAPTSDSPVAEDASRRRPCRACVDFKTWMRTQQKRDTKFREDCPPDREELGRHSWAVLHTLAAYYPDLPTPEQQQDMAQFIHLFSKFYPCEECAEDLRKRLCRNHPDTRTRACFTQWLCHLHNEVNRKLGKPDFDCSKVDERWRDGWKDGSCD
# Beta apoptosis = beta cell apoptosis inhibition; INS-1E cytokine-induced death, ATP luminescence, 48 h; percent of positive-control rescue, neutral wells zero; protection from apoptosis, % (concentration not given with the values); 300,000 tested, 0.8% active;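 active = all replicates at 75% or more, or half of them and the mean; inconclusive = half reach 75% but not the mean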;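 also: 0% = cytokine-treated negative control wells and 100% = positive control rescue; higher means more ATP so stronger rescue from cytokine killing; wells of about 40 µL received 100 nL stock; the first replicate is given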
# Beta2AR agonist = human beta-2 adrenergic receptor agonism by FAP; Am2.2-beta2AR cells, FAP receptor internalization, flow cytometry; reference of the scale not given here; response, % (test concentration not listed); P07550; 340,000 tested, 0.43% active;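 active = response above a set limit, near 3 SD of response in nonfluorescent compounds, cut at about 42% in these data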;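 also: stock transfer was 100 nL into about 11 µL; a reference agonist was the positive control; negative values mostly stem from fluorescent compounds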
# Target sequence (P07550 whole entry, looked up): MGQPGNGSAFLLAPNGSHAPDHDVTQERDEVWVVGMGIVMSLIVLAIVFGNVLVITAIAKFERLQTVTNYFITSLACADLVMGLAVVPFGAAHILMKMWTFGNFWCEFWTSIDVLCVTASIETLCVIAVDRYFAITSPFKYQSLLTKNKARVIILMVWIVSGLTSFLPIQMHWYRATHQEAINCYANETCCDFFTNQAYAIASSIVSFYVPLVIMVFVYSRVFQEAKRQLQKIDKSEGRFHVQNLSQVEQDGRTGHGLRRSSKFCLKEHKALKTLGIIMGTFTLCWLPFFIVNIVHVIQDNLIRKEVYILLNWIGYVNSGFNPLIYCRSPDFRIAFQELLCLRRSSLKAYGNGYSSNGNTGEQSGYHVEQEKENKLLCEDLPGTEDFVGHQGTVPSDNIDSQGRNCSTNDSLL
# T cruzi inh = T. cruzi replication inhibition | T. cruzi beta-gal in NIH3T3, luminescence, 90 h | inhibition, % (test concentration not listed) | 300,000 tested, 1.4% active;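 active = mean inhibition across valid replicates above about 55%, limit read from the data; inconclusive = mean below that limit but half or more replicates reach it; inactive = mean below it, under half of replicates reach it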;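 also: signal also drops with host cell toxicity which is not excluded here; 0% = plate median of DMSO wells and 100% = zero luminescence signal; higher percent means less beta-gal luminescence so fewer parasites; stock transfer was 50 nL into about 50 µL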
# rRNA inh HTS = selective bacterial rRNA inhibition in E. coli. AID 720706. 350,000 tested, 1.6% active. GFP signal change (wild-type ribosome), % (test concentration not listed). E. coli WT GFP vs humanized-ribosome RFP mutants, fluorescence, 24 h; hits give low values; DMSO median 0, no signal -100;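 active = significant combined selectivity score with lowered wild-type GFP, culture density cut under 30%, mutant RFP and density less affected; inactive = any of these conditions unmet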; also: one replicate is shown; some compounds called inactive have numbers as strong as hits
# Calb FLC = affects C. albicans growth with fluconazole; C. albicans CaCi-2 (fluconazole-resistant clinical isolate) + fluconazole, Alamar Blue growth, 48 h; growth inhibition, % (no concentration beside the values); 300,000 tested, 0.57% active; AID 1979;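 active = most replicates above 75%; inconclusive = exactly half above 75%; inactive = most below 75%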;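 also: all wells also contain fluconazole at 8 µg/ml as a sub-toxic cotreatment; 0% = median of DMSO wells and 100% = median of geldanamycin control wells; wells of about 8 µL received 7.5 nL stock; the first replicate is given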
# Bfl-1 A1 inh = inhibitors of the anti-apoptotic protein A1, read as caspase activation; MEF A1-2A-BIM cells, Caspase-Glo 3/7 luminescence, 3 h; percent of clofoctol response, vehicle zero; caspase activation, % (no concentration beside the values); 330,000 tested, 0.066% active;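 active = over half of replicate activation scores above 10%, or exactly half above 10 with the replicate mean above 10; inconclusive = replicate mean below 10 yet half the replicates above 10; inactive = over half of replicates below 10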;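 also: wells of about 30 µL received 50 nL stock; many hits fall short of the cut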
# rRNA inh HTS OD600 = further read-out of rRNA inh HTS, marked with its call; OD600 change, %; measured here: OD600 growth;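 optical density of the mix in the first replicate; 0 = DMSO median and -100 = no signal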
# rRNA inh HTS RFP = second read-out of rRNA inh HTS, no call of its own (marks repeat the call); RFP signal change, %; measured here: RFP humanized mutant strains;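 first replicate; 0 = DMSO median and -100 = no signal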
# Numbers without * were called inactive; ? = inconclusive; / = not tested or not shown. These rows are one share of the data, so the mix of outcomes need not match the whole.
SMILES,LANA-H2A inh,ALR H2O2 inh,Beta apoptosis,Beta2AR agonist,T cruzi inh,rRNA inh HTS,rRNA inh HTS OD600,rRNA inh HTS RFP,Calb FLC,Bfl-1 A1 inh
COc1cccc(OCC(=O)NNC(=O)c2cccs2)c1,3.3,-1,-4,6,-15,/,/,/,-6,0.2
COc1cccc(-c2cc(-c3cccnc3)c(C#N)c(N)n2)c1,0.3,/,4,7,2,11,1,-6.3,-1,0.0
COc1cc(C(=O)Nc2ccc3c(c2)OCCO3)c(-n2cnnn2)cc1OC,9.0,-5,-9,6,-8,/,/,/,25,0.0
CCOC(=O)CSc1nnc(CNC(=O)c2ccc(S(=O)(=O)N3CCCC3)cc2)n1C,-2.2,-1,-6,-1,-9,/,/,/,17,0.4
CC(=O)c1ccc(S(=O)(=O)N2CCN(C(=O)CSc3ccc(F)cc3)CC2)cc1,5.0,-30,-1,-6,3,-3,-2,0.5,0,0.1
C[C@@]12CCC[C@@](C)(C(=O)O)C1CC[C@@]13C[C@@H](NCc4ccccc4)[C@@](C)(CCC12)C3 (some centres not stated),-4.7,-13,-2,0,/,-2,-9,-6.4,/,0.2
Cc1ccc(CNC(=O)Cn2cnc3cc([N+](=O)[O-])ccc3c2=O)cc1,-1.7,-16,-8,-3,50,5,1,0.5,27,0.2
CCn1nnnc1SCC(=O)Nc1nnc(C(C)C)s1,3.0,7,-4,4,3,/,/,/,0,0.8
Cc1noc(C)c1COC(=O)c1ccc(S(=O)(=O)N2CCCCC2)cc1,3.3,-6,/,4,3,20,15,1.8,-1,0.4
Cn1c(CCNC(=O)c2cccs2)nnc1SCC(=O)Nc1nc(-c2ccccc2)cs1,-3.2,/,-2,1,5,13,13,-4.2,-2,1.0
O=C(CCCn1c(SCc2cccc(F)c2)nc2ccccc2c1=O)NCC1CCCO1 (configuration not stated),-1.3,1,0,-4,15,11,15,-0.2,-14,0.1
NC(=O)c1ccc(N2CCNC(=O)C2)c([N+](=O)[O-])c1,2.2,-4,-6,10,-5,6,10,0.8,1,0.7
Cc1ccc(-c2csc(NC(=O)C3=NN(C4CCS(=O)(=O)C4)C(=O)CC3)n2)cc1 (configuration not stated),1.2,-7,2,27,-3,3,4,-4.7,1,0.4
Cc1ccccc1NC(=S)N(Cc1ccccc1)Cc1cccs1,0.6,-4,-4,5,4,5,9,0.0,-11,-0.3
CCN(CC(=O)Nc1ccc(NC(C)=O)cc1)C(=O)/C=C/c1cn(-c2ccccc2)nc1-c1cccs1,1.6,-11,8,7,5,-18*,-12*,4.8*,12,0.9
O=C(NNS(=O)(=O)c1ccccc1)c1cccc([N+](=O)[O-])c1,2.4,-4,-7,-3,-2,-6,-13,-0.8,4,-0.5
COc1ccc(OC)c2sc(N(CCN(C)C)C(=O)c3ccc4ccccc4c3)nc12,-3.3,-10,2,15,5,-8,-4,0.5,-21,-0.2
Cc1c(NC(=S)N/C(=N/S(=O)(=O)c2ccccc2)c2ccccc2)c(=O)n(-c2ccccc2)n1C,4.7,5,-2,-1,-1,6,5,3.5,0,0.1
COc1cc(OC)cc(C(=O)N[C@H](C(=O)OCC(=O)c2c[nH]c3ccccc23)C(C)C)c1,-4.8,-6,-4,1,/,16,0,1.4,/,-1.7
Cc1ccc(NC2CCCN(C(=O)c3cn(C)c4ccccc34)C2)cc1C (configuration not stated),-5.4,92*,3,11,1,-19,-21,-1.2,3,0.7
O=C(CSc1ccc(-c2cccs2)nn1)NCCc1ccccc1,-4.4,8,0,-7,-10,4,9,3.3,-2,0.3
CCOc1ccccc1NC(=O)CSc1nc2nc(-c3cccs3)cc(C(F)(F)F)c2c(=O)[nH]1,1.7,/,1,3,-10,-7,-9,-1.3,5,0.7
O=C(CCn1nc(-c2ccc(Cl)cc2)c2ccccc2c1=O)Nc1cccnc1,2.5,-1,0,-14,2,-29,-25,-0.9,1,-0.3
CS(=O)(=O)N1CCCC(C(=O)NCc2ccc(F)cc2)C1 (configuration not stated),1.6,-3,1,-2,-10,/,/,/,-21,0.3
CCC1Nc2ccccc2-c2nnc(SC)nc2O1 (configuration not stated),2.6,-2,-11,3,-3,11,-2,1.5,-3,0.6

# Copied from the list.
# Value of Cc1ccccc1NC(=S)N(Cc1ccccc1)Cc1cccs1 in Bfl-1 A1 inh: -0.3
# Value of O=C(CCCn1c(SCc2cccc(F)c2)nc2ccccc2c1=O)NCC1CCCO1 (configuration not stated) in rRNA inh HTS OD600: 15
# Value of CC(=O)c1ccc(S(=O)(=O)N2CCN(C(=O)CSc3ccc(F)cc3)CC2)cc1 in rRNA inh HTS RFP: 0.5

# The main list resumes, starting 2 compounds before the break.
SMILES,LANA-H2A inh,ALR H2O2 inh,Beta apoptosis,Beta2AR agonist,T cruzi inh,rRNA inh HTS,rRNA inh HTS OD600,rRNA inh HTS RFP,Calb FLC,Bfl-1 A1 inh
CS(=O)(=O)N1CCCC(C(=O)NCc2ccc(F)cc2)C1 (configuration not stated),1.6,-3,1,-2,-10,/,/,/,-21,0.3
CCC1Nc2ccccc2-c2nnc(SC)nc2O1 (configuration not stated),2.6,-2,-11,3,-3,11,-2,1.5,-3,0.6
Cc1c(Br)c([N+](=O)[O-])nn1CC(=O)NCCc1ccc(Cl)cc1,-0.6,-4,1,-5,13,8,9,-3.7,-11,1.0
CCOC(=O)/C(=C\c1cccc(O)c1)c1nc2sc(C)c(C)c2c(=O)[nH]1,-2.9,98*,-27,12,-10,/,/,/,11,0.1
NS(=O)(=O)c1cccc(NC(=O)Nc2ccccc2)c1,-1.0,-5,-2,-3,5,2,14,-2.2,-6,-0.3
O=C(NCC1CCCO1)Nc1ccccc1 (configuration not stated),2.1,-2,-5,-16,-4,/,/,/,-2,-0.2
CC(=O)N(C)c1nc(N)n(-c2ccccc2)n1,-0.6,-3,0,-5,-35,3,0,2.8,-10,0.3
COc1ccc(NC(=O)CSCC(=O)Nc2ccccc2C(=O)N2CCCCC2)cc1,1.4,-6,1,-4,/,1,3,-0.2,/,0.1
CC(C)n1c(/N=C/c2ccccc2O)nc2ccccc21,0.9,/,1,6,3,4,-6,-3.4,21,-0.6
CCOC(=O)C(=NC(C)C)NNc1cc(Cl)ccc1Cl,-4.0,/,1,8,26,-1,6,-1.2,-56,0.1
CC(C)(C)c1ccc(C(=O)NNc2ccc(F)cc2F)cc1,-0.5,2,1,-5,/,7,18,0.6,87*,-0.4
COCCNC(=O)C1CCN(S(=O)(=O)c2ccc3c(c2)OCCO3)CC1,1.7,-4,-3,-3,-7,0,0,-1.2,0,0.0
CC(/C=N/NC(=O)c1ccc2nc(C)[nH]c2c1)=C\c1ccccc1,-9.0,-4,12,-3,4,/,/,/,6,-0.9
O=C(Cc1cccc(C(F)(F)F)c1)Nc1cc(S(=O)(=O)N2CCOCC2)ccc1N1CCCC1,-0.1,1,6,-5,/,/,/,/,/,0.6
CC(=O)n1cc([C@H]2C=C(C(=O)NCc3ccccc3)O[C@@H](OCCCCO)C2)c2ccccc21,3.9,-4,3,-1,-12,6,8,-9.1,-16,0.8
N#Cc1c(NC(=S)NC(=O)c2ccccc2)sc2c1CCCC2,-6.8,31,-5,5,14,/,/,/,0,-0.1
CCCNC(=O)c1ccc(N2CC3CC(C2)c2cccc(=O)n2C3)c(NC(=O)Nc2ccc(CC)cc2)c1 (configuration not stated),-0.3,7,12,-1,2,-5,3,2.8,4,-0.5
Cc1ccc(NS(=O)(=O)c2cc(C(=O)NCc3ccccn3)ccc2Cl)cc1C,0.1,-9,0,1,15,/,/,/,-17,1.1
Cc1ccc(C(=O)NCC#N)cc1,-1.6,/,-12,-1,-18,2,13,2.4,-10,0.6
CCC(C)c1ccccc1NC(=O)C1CCCO1 (configuration not stated),1.3,4,-3,11,-10,/,/,/,-11,0.2
CCc1ccccc1NC(=O)Nc1cc(F)ccc1F,3.4,-3,4,-3,18,-31,-51,-1.7,?,1.7
O=C(c1ccc2c(c1)OCCO2)N1CCN(c2ccc([N+](=O)[O-])cc2)CC1,3.0,1,0,/,-1,/,/,/,7,0.1
CCOC(=O)C1(C)NC(c2ccc(O)cc2)C2C(=O)N(c3ccccc3)C(=O)C21 (configuration not stated),-0.9,-5,-3,-2,-7,7,10,-0.6,-9,-0.4
CC1CCN(c2ccc3c(c2)S(=O)(=O)c2cccc(C(=O)NC4CCCCC4)c2C3=O)CC1,-0.8,2,6,2,/,15,15,7.4,/,1.1
CCn1c(=O)cc(OCC(=O)Nc2ccc3c(c2)OCCO3)c2ccccc21,0.9,-6,5,11,-6,/,/,/,-2,1.2
C[C@@H]1COC(=O)[C@H](NC(=O)OCC2c3ccccc3-c3ccccc32)C/C=C\C[C@@H](CC(=O)N[C@H](CO)Cc2ccccc2)C(=O)N1,-2.4,-4,18,-7,/,8,-4,-2.7,/,0.1
COc1ccc(C(=O)Oc2ccc(C(=S)N3CCOCC3)cc2)cc1,-2.9,27,0,8,-2,0,-4,2.0,9,-0.4
Cc1ccccc1C(=O)Nc1ccccc1N1CCN(C(=O)c2ccccc2)CC1,2.0,-12,/,0,12,-22,-26,-4.4,9,0.0
Brc1ccc(-c2csc(-c3ccncc3)n2)cc1,1.2,-6,2,3,46,/,/,/,?,-0.3
COc1ccccc1NS(=O)(=O)c1cccc(C(=O)N2CCCCCCC2)c1,3.2,1,6,2,15,-3,-14,0.1,/,-0.6

# An excerpt from above, showing only T cruzi inh and LANA-H2A inh:
molecule,T cruzi inh,LANA-H2A inh
CCOC(=O)C(=NC(C)C)NNc1cc(Cl)ccc1Cl,26,-4.0
CC(C)(C)c1ccc(C(=O)NNc2ccc(F)cc2F)cc1,/,-0.5
COCCNC(=O)C1CCN(S(=O)(=O)c2ccc3c(c2)OCCO3)CC1,-7,1.7
CC(/C=N/NC(=O)c1ccc2nc(C)[nH]c2c1)=C\c1ccccc1,4,-9.0
O=C(Cc1cccc(C(F)(F)F)c1)Nc1cc(S(=O)(=O)N2CCOCC2)ccc1N1CCCC1,/,-0.1

# Two records drawn at random from those above, as already listed:
SMILES,LANA-H2A inh,ALR H2O2 inh,Beta apoptosis,Beta2AR agonist,T cruzi inh,rRNA inh HTS,rRNA inh HTS OD600,rRNA inh HTS RFP,Calb FLC,Bfl-1 A1 inh
O=C(Cc1cccc(C(F)(F)F)c1)Nc1cc(S(=O)(=O)N2CCOCC2)ccc1N1CCCC1,-0.1,1,6,-5,/,/,/,/,/,0.6
CC(=O)N(C)c1nc(N)n(-c2ccccc2)n1,-0.6,-3,0,-5,-35,3,0,2.8,-10,0.3
